Measles inh: inhibitors of measles virus growth in infected cells. infected Vero cells, GFP fluorescence, 64 h; active compounds read low. z-score (concentration not given with the values). actives 0.1% (n = 33,000). AID 745;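 active = z-score under -3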;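 also: score is relative to mean and SD of the compound wells of a plate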
Starred values were filed as active, the others as inactive. Not all compounds are listed; count on the stated rates, not on these rows.

Measles inh | smiles
-0.82 | CN(c1ccc(F)cc1)S(=O)(=O)c1ccc2[nH]cc(C(=O)NCC3CCCO3)c(=O)c2c1 (centres undefined)
-1.5 | O=C(c1cc2cc([N+](=O)[O-])ccc2s1)N1CCCCC1
-0.14 | CCC(Sc1nnc2c3cc(Br)ccc3n(C)c2n1)C(=O)NC(C)c1ccccc1 (centres undefined)
2.3 | COc1cc(C2C3=C(CCCC3=O)Nc3nc(SCc4ccc([N+](=O)[O-])cc4)[nH]c(=O)c32)cc(OC)c1OC (centres undefined)
0.58 | COc1ccc(C2C3C(=O)N(c4ccccc4)C(=O)C3ON2c2ccccc2C)cc1 (centres undefined)
-0.19 | CC(C(=O)N1c2ccccc2Sc2ccccc21)N1C(=O)c2ccccc2C1=O (centres undefined)
-0.93 | Clc1ccc(-c2nc3ccccn3c2Nc2ccc3c(c2)OCCO3)s1
-0.3 | Cc1ccc(-c2ccc(CCC(=O)O)n2-c2ccc(Cl)cc2)cc1
0.21 | Cc1ccc(Cl)c2c1NC(=O)C2(O)CC(=O)c1ccc(C(C)C)cc1 (centres undefined)
-0.69 | O=C(CCCCCn1c(=S)[nH]c2cc3c(cc2c1=O)OCO3)NC1CCCC1
0.24 | COCCCn1c(=N)c(C(=O)NCc2ccccc2)cc2c(=O)n3ccccc3nc21
-0.47 | Cc1ccc(-c2cn3cccc(C)c3n2)cc1
1.8 | O=C(COc1ccc(Br)cc1)NC1CCCC1
-0.99 | CC1(C)CC(=O)C2=C(C1)NC1=C(C(=O)CC(C)(C)C1)C2c1ccccc1O
-0.56 | CCC(=O)N1CCc2cc(Br)cc(S(=O)(=O)N(C)c3ccc(OC)cc3OC)c21
-0.82 | Cc1ccc(/C(O)=C2\C(=O)C(=O)N(c3nc4ccccc4s3)C2c2ccc([N+](=O)[O-])cc2)cc1 (centres undefined)
-0.02 | O=C(O)C1CC=CCC1C(=O)N1CCC(Cc2ccccc2)CC1 (centres undefined)
1.6 | CCOCCCCNC(=O)c1ccc2c(c1)nc(C)n2-c1cccc(C)c1
-0.55 | O=C(COc1ccc(I)cc1)Nc1ccc(Br)cn1
0.48 | O=C(O)CCCCCNCc1cccnc1
-0.08 | COc1cc(NS(=O)(=O)c2ccc(NC(=O)c3ccccc3Br)cc2)nc(OC)n1
2.1 | CCN(Cc1ccccc1)C(=O)c1c(C)cc(=O)oc1C
-1 | Cc1ccc(S(=O)(=O)C2CS(=O)(=O)CC2S(=O)(=O)c2ccc(C)cc2)cc1 (centres undefined)
-0.6 | CC(=O)Nc1cc(C(=O)N2CCN(C)CC2)ccc1Sc1ccc(F)cc1
-1.9 | O=C(c1ccc(-c2ccccc2)cc1)N1CCN(C2CCCCCC2)CC1
0.78 | Cc1ccc(S(=O)(=O)CCc2nnc(NC(=O)c3ccc(C)c([N+](=O)[O-])c3)s2)cc1
0.35 | CCCCSc1nc2c(c(=O)[nH]c(=O)n2C)n1C(C)C
0.05 | Nc1nnc(SCC(=O)Nc2ccccc2)s1
-0.82 | COCCn1c(=S)[nH]c2cc(C(=O)N3CCN(C)CC3)ccc2c1=O
-0.79 | COc1ccc(NC(=O)CC2C(=O)N(C)C(=S)N2CCc2ccc(Cl)cc2)cc1 (centres undefined)
0.05 | COC(=O)c1cn(C(=O)c2ccc([N+](=O)[O-])c(C)c2)c2ccccc12
-0.24 | CCCCOc1cccc(NC(=O)CSc2nccn2C)c1
1.6 | Cn1c(=O)c2c(SCc3ccc(F)cc3)nc(-c3cccs3)nc2n(C)c1=O
-0.04 | CCc1cc2c(=O)c(Oc3ccccc3)c(C)oc2cc1OC(C)C
-1.4 | CC1CC(C)CN(CCC(=O)Nc2ccccc2Cl)C1 (centres undefined)
-0.26 | CCc1ccc(C2CC(c3ccccc3Cl)n3nnnc3N2)cc1 (centres undefined)
-0.1 | CCC(=O)N1c2ccccc2-c2nnc(SC)nc2OC1c1cc(OC)ccc1Br (centres undefined)
-0.22 | NC(=O)CSc1ncnc2nc[nH]c12
0.58 | O=S(=O)(c1cccc(S(=O)(=O)N2CCCCC2)c1)c1cccc(S(=O)(=O)N2CCCCC2)c1
-0.53 | Cc1ccnc(NC(=O)c2cn(C3CCCC3)c(=O)c3c2c2ccccc2n3C)c1
0.91 | Clc1ccc(C2=Nn3c(nnc3-c3cccc(Br)c3)SC2)cc1
1.3 | Cc1c(C(=O)NC(C)(C)C)sc2nc(-c3ccc(F)cc3)cn12
-1.2 | O=C(CN1C(=O)c2cccc([N+](=O)[O-])c2C1=O)N1CCc2ccccc2C1
-0.15 | O=C(O)c1ccc(S(=O)(=O)c2ccc3c(c2)C(=O)N(CC2CCCO2)C3=O)cc1 (centres undefined)
-0.06 | CCCCN(CC)S(=O)(=O)c1ccc2oc(C(=O)O)c(C)c2c1
0.54 | O=C(O)CCCC(=O)NC1=NCCS1
-1.3 | Cc1ccc(N2C(=O)C(Cl)=C(Nc3ccccc3)C2=O)cc1Cl
0.17 | CCC(=O)N1c2ccc(S(=O)(=O)Nc3ccc(F)cc3)cc2CC1C (centres undefined)
-0.42 | CN1C(=S)SC(C)([N+]([O-])=Cc2ccc([N+](=O)[O-])cc2)C1(C)C (centres undefined)
0.69 | O=C(COC(=O)c1ccco1)Nc1cccc2ccccc12
1.1 | Cc1nc2c(C(=O)N3CCN(c4cccc(Cl)c4)CC3)cnn2c(C)c1Cc1ccccc1Cl
0.53 | CCN(CC)CCNS(=O)(=O)c1cccc2nsnc12
1 | Cc1cccc(N2CCN(C(=O)C3CCC(Cn4c(=S)[nH]c5ccccc5c4=O)CC3)CC2C)c1 (centres undefined)
0.1 | NC(N)=NS(=O)(=O)c1ccc(N=Cc2ccccc2[N+](=O)[O-])cc1
0 | Cc1nn(C(=O)COc2ccc(Cl)cc2)c(C)c1Sc1ccc([N+](=O)[O-])cc1
-0.8 | CCc1ccc(C(=O)Cn2ccsc2=N)cc1
-0.05 | CCc1nc(SCC(=O)Nc2cccc(C(F)(F)F)c2)c(C#N)cc1C
-0.94 | COc1cccc(-c2cn3c4c(=O)n(C)c(=O)n(C)c4nc3n2Cc2ccccc2)c1
1.3 | O=C(O)CN1C(=O)C2C3C=CC(CC3)C2C1=O (centres undefined)
0.33 | COc1ccccc1CNC(=O)c1ccc(Cn2c(=O)c3ccccc3n(Cc3ccccc3F)c2=O)cc1

The listing continues.
Measles inh | smiles
-0.2 | COc1ccc(C2(C(=O)Nc3ccc(C(=O)NC(C)(C)C)cc3)CCOCC2)cc1
-0.77 | COc1ccc(NC(=O)Cn2c(-c3cc(OC)c(OC)c(OC)c3)nc3ccccc3c2=O)cc1Cl
-0.37 | CCn1c2ccccc2c2nnc(SCC(=O)N(c3ccccc3)c3ccccc3)nc21
-0.25 | CCC(C)NC(=O)CN1C(=O)CSc2ccc(S(=O)(=O)N(C)C3CCCCC3)cc21 (centres undefined)
-0.69 | CC(C)c1nnc(NC(=O)c2ccccc2)s1
1.4 | CCOc1ccc(C=Nc2ccc([N+](=O)[O-])cc2)cc1
-1 | O=C(O)CC1NC(=S)NC1=O (centres undefined)
0.08 | O=c1[nH]snc1N1CCOCC1
-0.25 | O=C1C(=O)N2C(=C1C(=O)N1CCOCC1)c1ccccc1CC21CCCCC1
0.14 | O=C(NCc1ccccn1)C1CCC(CNc2nc(=S)[nH]c3ccccc23)CC1 (centres undefined)
-0.29 | CCCC1CCC(c2ccc(C#N)cc2)CC1 (centres undefined)
-0.99 | COc1ccccc1-c1csc(NC(=O)c2cc(-c3ccccc3)nc3ccccc23)n1
-0.06 | NC(=O)c1ccccc1NS(=O)(=O)c1ccc(F)cc1
0.38 | Fc1ccc(C2=NN(c3cccc(F)c3)C(c3cccs3)C2)cc1 (centres undefined)
-0.45 | O=C(CNc1ccccc1)N1c2ccccc2Sc2ccccc21
0.66 | Cc1nc2c(C(=O)N3CCCC3)cnn2c(C)c1Cc1ccccc1
1.3 | CC(=O)Nc1ccc2oc(-c3cccc(I)c3)nc2c1
-1.2 | COc1ccc(C(=O)Nc2nc(-c3ccccc3)c(C(=O)c3ccccc3)s2)cc1
-0.73 | O=C1c2ccc3ccccc3c2C(=O)C1c1cc(=O)c2ccccc2[nH]1 (centres undefined)
-0.7 | COc1ccc2c(c1)C(C)=CC(C)(C)N2C(=O)CN1C(=O)c2cccc([N+](=O)[O-])c2C1=O
-1.1 | CCOC(=O)c1c(N)sc(C(=O)Nc2cccc(C(F)(F)F)c2)c1C
-0.11 | COc1cccc2cc(-c3cn(-c4ccc(C)cc4)c(=S)[nH]3)c(=O)oc12
-0.72 | Cc1cccc(NS(=O)(=O)c2cccs2)c1
2.4 | ClC(Cl)C1=Nc2ccccc2N=C(c2ccccc2)C1
-1.1 | COc1cccc(OCC(=O)NCc2ccncc2)c1
-1.4 | CCOC(CCl)S(=NS(=O)(=O)c1ccccc1)c1ccccc1I (centres undefined)
-0.44 | O=C(NCCCN1CCCCC1)c1cc(-c2cccs2)nc2ccccc12
-0.45 | C[n+]1ccccc1-c1nc2ccccc2s1
0.45 | CCOc1cccc(C(=O)Nc2cc(-c3nc4cc(C)cc(C)c4o3)ccc2C)c1
-0.3 | COc1ccc(C(=O)Nc2ccc(NC(=O)c3cccc(C)c3)cc2)cc1[N+](=O)[O-]
-0.25 | Cc1ccc(NC2OC(=O)c3ccccc32)cc1F (centres undefined)
-0.17 | Cc1nnc(SCc2cc(=O)oc3cc(O)ccc23)s1
-0.57 | CCOC(=O)C1=NNC(C(=O)c2ccccc2)C1c1ccc(C)cc1 (centres undefined)
-0.1 | COC(=O)Cc1cc(=O)oc2cc(O)ccc12
-1.8 | CCC(CO)NCC(O)Cn1c2ccccc2c2ccccc21 (centres undefined)
0.07 | COc1cc2c(C(=O)Nc3ccc(C(F)(F)F)cc3)cn(C)c(=O)c2cc1OC
0.53 | Cc1ccc(Cl)cc1-n1c(=S)[nH]c2[nH]ncc2c1=O
-0.15 | O=C1Nc2cc(C(=O)N3CCCC3)ccc2SC1N1CCN(c2ccc(Cl)cc2)CC1 (centres undefined)
2.1 | COc1ccc(/C(O)=C2\C(=O)C(=O)N(c3ccccn3)C2c2ccc(C(C)C)cc2)cc1 (centres undefined)
0.48 | CCOC(=O)c1c(NC(=O)c2ccc(OC(C)C)cc2)sc2c1CCCC2
1.1 | O=C(O)c1cccc(NC(=O)c2ccccn2)c1
4.9 | CC(C)c1ccc2oc(-c3ccc(NC(=O)c4cncc(Br)c4)cc3)nc2c1
-0.4 | C=CCN1C(C(=O)c2ccccc2)=C(NC(=O)c2ccc(Cl)cc2)c2ccccc2S1(=O)=O
-0.63 | O=C(CC1Sc2ccccc2NC1=O)Nc1ccc(-c2ccccc2)cc1 (centres undefined)
-0.1 | O=C(NCc1ccccc1Cl)c1cccn2c(=O)c3cc(Br)ccc3nc12
-0.88 | O=[N+]([O-])c1cc(C(F)(F)F)ccc1N1CCN(c2ccc(C(F)(F)F)cc2[N+](=O)[O-])CC1
-0.55 | CC(C)(C)c1ccc2[nH]c3c(c2c1)CCCC3=O
0.27 | CCOc1ccc(C(=O)Nc2ccc3nn(-c4ccc(OC)cc4)nc3c2)cc1Cl
-0.55 | CCC(CO)NCC(O)CN1c2ccccc2Sc2ccccc21 (centres undefined)
-0.55 | CCN(CCCNC(=O)c1cn(C2CCCCC2)c(=O)c2c1c1ccccc1n2C)c1ccccc1
-1.1 | CSc1ccc(-c2nc(-c3cccs3)c(-c3cccs3)[nH]2)cc1
-0.36 | CC(Sc1oc(-c2ccco2)nc1S(=O)(=O)c1ccc(F)cc1)c1ccccc1 (centres undefined)
-0.55 | CCOc1cccc(C2Nc3ccccc3-c3nnc(SC)nc3O2)c1OC (centres undefined)
-0.59 | CSc1nnc2c(n1)OC(c1ccc(C(C)C)cc1)Nc1ccccc1-2 (centres undefined)
-2 | Cc1ccc(CNC(=O)c2cnn3c(C)c(Cc4ccc(F)cc4)c(C)nc23)cc1
-0.31 | COc1cc(Br)cc(C2NC(=O)c3c(sc4c3CCN(C)C4)N2)c1O (centres undefined)
-0.06 | Cc1ccc(-c2cc(C(F)(F)F)n3ncc(C(=O)NC4CCCCC4)c3n2)cc1
0.09 | Cn1c(=O)c2c(nc(NCCCO)n2Cc2ccccc2F)n(C)c1=O
-0.22 | C=CCSc1ncccc1C(=O)NCc1ccccc1OC
-0.33 | Cc1ccc(NS(=O)(=O)c2ccc(F)cc2)nc1

More records:
Measles inh | smiles
1.1 | CCCCc1ccc(NC(=O)c2cnc3sccn3c2=O)cc1
0.1 | CC(=O)Nc1ccc(-c2nc3cc(S(=O)(=O)c4ccc5oc(-c6ccc(NC(C)=O)cc6)nc5c4)ccc3o2)cc1
0.02 | O=C(Nc1ccc2nn(-c3ccccc3)nc2c1)c1ccc([N+](=O)[O-])o1
1.1 | COc1cc(OC)c(C(c2c(C)[nH]c3ccccc23)c2c(C)[nH]c3ccccc23)c(OC)c1
-1.2 | O=C(CCN1N=C(c2ccccc2)CCC1=O)NCc1ccccc1
-1.2 | COc1cc(CN(C)C)c(O)c(CN(C)C)c1
-0.52 | COc1cc(NC(=O)CSc2nc3[nH]ncc3c(=O)n2-c2ccc(Cl)c(C)c2)cc(OC)c1OC
-0.32 | COc1ccc(S(=O)(=O)N2CCN(CC(=O)Nc3ccccc3C(F)(F)F)CC2)cc1

7 of the compounds above, with bars between the fields:
smiles | Measles inh
COc1cc(OC)c(C(c2c(C)[nH]c3ccccc23)c2c(C)[nH]c3ccccc23)c(OC)c1 | 1.1
COc1ccc(S(=O)(=O)N2CCN(CC(=O)Nc3ccccc3C(F)(F)F)CC2)cc1 | -0.32
CC(=O)Nc1ccc(-c2nc3cc(S(=O)(=O)c4ccc5oc(-c6ccc(NC(C)=O)cc6)nc5c4)ccc3o2)cc1 | 0.1
COc1cc(CN(C)C)c(O)c(CN(C)C)c1 | -1.2
O=C(CCN1N=C(c2ccccc2)CCC1=O)NCc1ccccc1 | -1.2
O=C(Nc1ccc2nn(-c3ccccc3)nc2c1)c1ccc([N+](=O)[O-])o1 | 0.02
COc1cc(NC(=O)CSc2nc3[nH]ncc3c(=O)n2-c2ccc(Cl)c(C)c2)cc(OC)c1OC | -0.52

Some of the entries so far, as labelled records:
COc1cc(CN(C)C)c(O)c(CN(C)C)c1
- Measles inh: -1.2

COc1cc(NC(=O)CSc2nc3[nH]ncc3c(=O)n2-c2ccc(Cl)c(C)c2)cc(OC)c1OC
- Measles inh: -0.52

COc1ccc(S(=O)(=O)N2CCN(CC(=O)Nc3ccccc3C(F)(F)F)CC2)cc1
- Measles inh: -0.32
